# Source: PubChem BioAssay (National Center for Advancing Translational Sciences (NCATS))
# miR-21 reporter: raises the signal of a miR-21 reporter; Potency, µM (top dose mostly 38.3 µM), for inactives: at the top dose reporter change, positive = more light; 340,000 tested, under 10 active; AID 2288; HeLa miR-21 FLuc reporter, luciferase, 48 h; active = well fitted rising curve with a large enough effect; inconclusive = small, poorly fitted or top-dose-only effect; inactive = no such curve, though single readings can be large or run the other way;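 note: % of control where 0% means no effect; miR-21 action dims this reporter so a rising signal means less miR-21 action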
#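 Using DMEM plus 10% FBS, HeLa miR-21-FLuc cells are incubated with test compounds (final up to about 40uM) for 48 hours; firefly luciferase signal is then imaged following reagent-mediated lysis.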
# Rango-impB inh: inhibitors of Rango-importin beta complex formation. 0.031% of 340,000 active. Q14974. Potency, µM (highest dose often 92.2 µM), without a hit: at the highest dose inhibition of complex formation. Rango CFP/YFP FRET sensor + importin beta, 45 min. AID 540263; active = rising FRET ratio curve, often small or poorly fitted; inconclusive = mostly compound fluorescence or quenching in the first reads; inactive = flat curves in all reads;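 note: potency is the fitted concentration of half-maximal effect; 0% = DMSO wells and 100% = buffer wells lacking importin beta; nearly all actives have a fitted effect of over 15% in size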
#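 FRET biosensor (snurportin 1 IBB flanked by EYFP and cerulean), 50 nM, with compound 5 min, then 0.125 microM importin beta in PBS, 1 mM DTT, 0.02% Tween-20, 0.1% BSA. CFP/YFP ratio read after 45 min at room temperature; pre-read flags interference.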
# Rango release inh: inhibitors of RanGTP-induced Rango-importin beta complex dissociation; Biochemical FRET Rango-importin beta, RanGTP-induced dissociation; AID 540253; O95149+P62826; 0.071% of 340,000 active; Potency, µM (doses to about 46.1 µM), for the others: at the highest dose activity change, negative = inhibition; active means falling FRET ratio curve, often poorly fitted, with flat reads before Ran was added; inconclusive means other falling curves, or compound fluorescence or quenching; inactive means flat or rising ratio curve;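 note: potency is the fitted concentration of half-maximal effect; % of control where 0% means no effect; nearly all actives have a fitted effect of over 45% in size; -100% = wells without RanGTP and RCC1; the record marks most hits as doubtful in a second field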
#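 Quantitative HTS using a FRET biosensor: 0.1 uM Rango, 0.25 uM importin beta, 0.6 uM Ran, 2 mM GTP, 0.2 uM RCC1 final, PBS with DTT, Tween-20 and BSA. Post-read taken 45 min after Ran addition.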
# Active calls of the source: *; ? = inconclusive.
SMILES,miR-21 reporter,Rango-impB inh,Rango release inh
CCN(CC)S(=O)(=O)c1ccc(C(=O)O)cc1,-2%,?,-8%

# Only part of the results is shown; count on the stated rates, not on these rows.
